Vaccinia mCherry: vaccinia inhibition (mCherry reporter). 0.63% of 310,000 active. Vaccinia virus mCherry reporter infection, fluorescence; about a quarter of the inactives have no number. Potency, µM (doses to about 36.5 µM), for the others: top-dose activity change, negative = inhibition, hits mostly inhibitors; active = well fitted inhibition curve with a large enough effect; inconclusive = small, poorly fitted or top-dose-only effect; inactive = no such curve, though single readings can be large or run the other way; tested in A549 cells; also: nearly all actives have a fitted effect of over 35% in size; inactives centre near -10
Vaccinia Venus: inhibitors of vaccinia virus (Venus reporter); 0.46% of 330,000 active; AID 720580; Potency, µM (top dose mostly 36.5 µM), without a hit: at the highest dose activity change, negative = inhibition, hits mostly inhibitors; Vaccinia virus Venus reporter expression, fluorescence; active means well fitted inhibition curve with a large enough effect; inconclusive means small, poorly fitted or top-dose-only effect; inactive means no such curve, though single readings can be large or run the other way; tested in A549 cells; also: nearly all actives have a fitted effect of over 30% in size; inactives centre near -10
Starred values were filed as active, the others as inactive; i = inactive; u = inconclusive; x = not tested or not shown; & = joins results of further samples; [ ] = remark or other dose. % is scaled to controls: 0 for no effect and ±100 for the full control effect; potency is read from the fitted curve at half-maximal effect. Outcome played no part in choosing rows, and some 0.82% of all compounds hit somewhere here.

Under each structure: Vaccinia mCherry, Vaccinia Venus
> COc1ccc(Cl)cc1NC(=S)NC(=O)c1ccc2c(c1)OCO2
 : -8%, -10%
> Cc1ccc(-c2noc(-c3nnn(-c4cccc(C(F)(F)F)c4)c3N)n2)cc1
 : -4%, -4%
> COc1ccccc1Nc1ncc2c(n1)CCN(Cc1ccc(C)s1)C2
 : -3%, 5%
> O=C(/C=C/c1ccccc1)C1C(=O)c2ccccc2C1=O
 : -18%, -7%
> C=CCn1cccc(C(=O)Nc2ccc(C)c(Cl)c2)c1=O
 : 0%, -9%
> COc1ccc(C2C(C(=O)O)c3ccccc3C(=O)N2C)cc1Br (stereo not drawn)
 : -12%, -4%
> Cc1ccc2oc(C(=O)N(Cc3ccccc3F)C3CCS(=O)(=O)C3)c(C)c2c1 (stereo not drawn)
 : -11%, -4%
> CC1=C(C(=O)N2CCOCC2)CC(CC(=O)NCc2cccc3ccccc23)C(=O)N1Cc1ccccc1 (stereo not drawn)
 : -2%, -21%
> Cc1ccc(S(=O)(=O)N2CCOCC2)cc1NC(=O)COC(=O)Cc1ccsc1
 : i, -11%
> CCCNC(=S)N1CCN(c2nc(C)nc3sc4c(c23)CCCC4)CC1
 : -11%, -23%
> COc1ccc(S(=O)(=O)N2CC(C)N(C(=O)N(C)C)C2C(C)C)cc1 (stereo not drawn)
 : -14%, -7%
> COc1ccc(-n2c(N)c(C(=O)NCC3CCCO3)sc2=S)cc1 (stereo not drawn)
 : i, -9%
> C/C(Cl)=C\Cn1c(NCCc2ccccc2)nc2c1c(=O)n(C)c(=O)n2C
 : u, -27%
> CC(C)(C)c1ccc(OCC(=O)Nc2ccc(-c3nc4cccnc4o3)cc2)cc1
 : x, -13%
> O=C(NC(=S)N1CCc2ccccc21)c1ccccc1Cl
 : -4%, -9%
> c1ccc2sc(Nc3nc4cc5c(cc4s3)OCO5)nc2c1
 : -1%, -14%
> COc1cc(OC)c(NC(=O)c2ccc3nc(C(C)C)oc3c2)cc1Cl
 : i, -20%
> CCOC(=O)C1=C(O)c2ccccc2C(=O)/C1=C\c1ccc(C)cc1
 : 448%[activator], i
> CCOc1ccccc1/C=N/NC(=O)c1ccc(Cn2cc([N+](=O)[O-])cn2)o1
 : x, -14%
> CN(C)CCCNc1ccc(-c2nn(C)c(=O)c3ccccc23)cc1[N+](=O)[O-]
 : -4%, 0%
> O=C1N[C@@H](Cc2cn(S(=O)(=O)c3ccccc3)c3ccccc23)C(=O)N[C@H]1Cc1ccccc1
 : u, -5%
> CC(/C=C/C1(O)C(C)CC(=O)CC1(C)C)OC1OC(CO)C(O)C(O)C1O (stereo not drawn)
 : 14%, -4%
> CCc1nc2c(OCc3ccc(OC(F)F)cc3)cccn2c1N(C)C(=O)c1ccco1
 : 14%, -1%
> COc1ccc(-c2nnc(SCC(=O)Nc3c(C)cccc3C)nc2-c2ccc(OC)cc2)cc1
 : -8%, -30%
> O=C(NCCCN1CCOCC1)C(=O)N/N=C/c1cccc2ccccc12
 : -19%, -25%
> O=C(CSc1ncccn1)N/N=C/c1cccs1
 : i, -5%
> COc1ccc(NC(=O)c2ccc3c(c2)CCN3S(=O)(=O)c2ccccc2)cc1
 : u, -21%&-9%
> Cc1ccc(NC(=S)Nc2cccnc2)c(S(=O)(=O)N2CCCCC2)c1
 : -2%, -4%
> CCOc1ccc(C2c3c(oc4cc(C)c(C)cc4c3=O)C(=O)N2CCCN(C)C)cc1OC (stereo not drawn)
 : 1%, 5%
> CCc1ccccc1NC(=O)N1CC(C)Sc2ccccc21 (stereo not drawn)
 : -4%, -9%

Entries shown so far that have two or more sulfur atoms (six):
Under each structure: Vaccinia mCherry, Vaccinia Venus
> Cc1ccc(S(=O)(=O)N2CCOCC2)cc1NC(=O)COC(=O)Cc1ccsc1
 : i, -11%
> CCCNC(=S)N1CCN(c2nc(C)nc3sc4c(c23)CCCC4)CC1
 : -11%, -23%
> COc1ccc(-n2c(N)c(C(=O)NCC3CCCO3)sc2=S)cc1 (stereo not drawn)
 : i, -9%
> c1ccc2sc(Nc3nc4cc5c(cc4s3)OCO5)nc2c1
 : -1%, -14%
> O=C(CSc1ncccn1)N/N=C/c1cccs1
 : i, -5%
> Cc1ccc(NC(=S)Nc2cccnc2)c(S(=O)(=O)N2CCCCC2)c1
 : -2%, -4%

The list continues:
Under each structure: Vaccinia mCherry, Vaccinia Venus
> CCOc1ccc(NC(=O)CN(C)C(=O)c2cc([N+](=O)[O-])ccc2N2CCOCC2)cc1OCC
 : -20%, -13%
> CCOC(=O)c1c(-c2cc(OC)c(OC)c(OC)c2)csc1N
 : -24%, u
> Cc1cc(C)c2c(c1)/C(=N/NS(=O)(=O)c1ccccc1)CCC2
 : -29%, -22%
> Cc1ccc([C@H]2N[C@]3(CCCN(CC4CCCCC4)C3=O)[C@H]3C(=O)N(Cc4ccccc4)C(=O)[C@@H]23)cc1
 : i, -23%
> COc1ccc2cc3cc(C(=O)NCCc4ccccc4)sc3nc2c1Cl
 : -12%, -10%
> Cc1nnc(NCc2ccccc2)c2c1nnn2Cc1ccc(F)cc1
 : u, u
> CN(Cc1ccccc1)S(=O)(=O)c1ccc(OCC(=O)Nc2cccc([N+](=O)[O-])c2)cc1
 : -12%, -17%
> CCC(=O)c1ccc(OCC(O)Cn2nnc3ccccc32)cc1 (stereo not drawn)
 : -12%, -17%
> COc1ccc(CC(=O)NCC(C)(C)N2CCOCC2)cc1
 : 7%, 0%
> CSCCNC(=O)C1(C)CCN1C(=O)CCc1ccccc1 (stereo not drawn)
 : i, 7%
> CCc1nc2ccc(C(=O)Nc3cccc(NS(C)(=O)=O)c3)cn2c1N(C)CCN1CCOCC1
 : i, -8%
> Cc1ccc(-c2ccc3c(c2)O[C@H](CN(C)Cc2cncnc2)[C@@H](C)CN([C@H](C)CO)S3(=O)=O)cc1
 : -24%, -7%
> CCCCOCCCNC(=O)C[C@@H]1C[C@@]2(C(=O)OC)CCCCC=C2N(CCC2=CCCCC2)C1=O
 : -15%, -8%
> COc1ccccc1NC(=O)Cn1nnc(-c2ccccc2NC(=O)c2cc3ccccc3oc2=O)n1
 : -7%, -6%
> O=C(O)CCCCCn1c(SCC(=O)Nc2ccc(F)cc2)nc2ccsc2c1=O
 : i, -11%
> Cn1c(CCN2CCCC2)nc2cc(NC(=O)COc3ccc(Cl)cc3)ccc21
 : i, -19%
> Cc1cccc(CC2S/C(=N/N=C/c3ccco3)NC2=O)c1 (stereo not drawn)
 : i, -11%
> COc1ccc(CNC(=O)c2cc3ccccn3n2)c(OC)c1
 : -7%, -3%
> CC(=O)SC(C)CC(=O)NCc1ccccc1 (stereo not drawn)
 : i, -6%
> CCN(CCO)c1nc(SC)nc2c1sc1nc(-c3ccco3)c3c(c12)CCC3
 : -8%, -11%
> O=C1NC(=O)C(=Cc2ccccc2OCCOc2ccc([N+](=O)[O-])cc2)C(=O)N1
 : -7%, -7%
> CCCCCn1c(N2CCOCC2)nc2c1c(=O)n(CC(N)=O)c(=O)n2C
 : x, 7%
> Cc1cc(C(=O)N/N=C/C=C/c2ccc([N+](=O)[O-])cc2)n[nH]1
 : i, -15%
> CC(C)CCNC(=S)Nc1ccc(Br)cc1
 : -13%, u
> Cc1ccc2nc(Cl)c3cc(C(=O)NC4CCC(C)CC4)sc3c2c1 (stereo not drawn)
 : -3%, -11%
> Cc1cc(C)n2nc(-c3ccsc3-n3c(C)ccc3C)cc2n1
 : -23%, 0%
> CSc1nc2ccccc2c(=O)n1Cc1ccc(F)cc1
 : -16%, -6%
> CCNC(=O)c1cc(NC(=O)COC)cc2nc(-c3ccncc3)n(C)c12
 : -13%, -9%
> CCN(C(=O)COC(=O)c1ccc(COc2ccc3c(C)cc(=O)oc3c2)cc1)C1CCS(=O)(=O)C1 (stereo not drawn)
 : -5%, 2%
> COc1ccc(N(CC(=O)NC2CCCC2)C(=O)CCC(=O)Nc2nc(C)cs2)cc1OC
 : 22%, -3%

Next part
Under each structure: Vaccinia mCherry, Vaccinia Venus
> Cc1cc(Cn2nc(C(=O)NCc3cccc(Br)c3)cc2-c2ccccc2)on1
 : u, u
> Cc1ccc(C2CC3CCC(C2)N3Cc2ccccc2F)cc1 (stereo not drawn)
 : -18%, u
> CCCCc1nnc(NC(=O)CSc2nc(O)c(Cc3ccccc3)c(=O)[nH]2)s1
 : -6%, -4%
> CCc1ccccc1NC(=O)Cn1c(=O)n(Cc2ccc3c(c2)OCO3)c(=O)c2ccc(C(=O)NC3CCCCC3)cc21
 : -4%, -10%
> CCCOc1ccc(-c2c(C(=O)N/N=C/c3cccs3)nnn2-c2nonc2N)cc1
 : -17%, 8%
> CCNC(=O)CC1C(=O)N(CC)C(=S)N1NC(=O)c1cccnc1 (stereo not drawn)
 : i, -1%
> COCCNC(=O)C1(C)CCCN(Cc2ccc(C)c3ccccc23)C1 (stereo not drawn)
 : 3%, -6%
> CC(C)(C)n1nnnc1C(c1ccc(C#N)cc1)N1CCCC2(CCCCC2)C1 (stereo not drawn)
 : i, -5%
> COc1ccc(OC)c(CN2CCN(C(=O)c3cccc(S(=O)(=O)N(C)c4ccccc4)c3)CC2)c1
 : u, -22%
> COc1cc(/C=C/C(=O)OCC(=O)NC2CCCCCCC2)ccc1O
 : -22%, -17%
> Cc1ccc(S(=O)(=O)N2CCN(c3nc(-c4ccnnc4)nc4ccccc34)CC2)cc1
 : i, -12%
> COc1ccc(C(=O)CC(=O)C(=O)Nc2cc(C)ccc2C)cc1
 : -9%, -9%
> C[C@@H]1[C@H](O)C[C@@]23COC(=O)C2=CCC[C@@H]3[C@@]1(C)CC/C(=C/CO)CO
 : i, -5%
> CC(C)OC(=O)CSc1nnc(SCc2cccc3ccccc23)s1
 : -21%, -12%
> CC(=O)Nc1cccc(C(=O)Nc2cccc3ncccc23)c1
 : -7%, -16%
> CC(C)NC(=O)C1CCCN(S(=O)(=O)c2cccc3nonc23)C1 (stereo not drawn)
 : -7%, 8%
> COc1cc2c(cc1OC)-c1cc(NCc3ccccn3)nc(=O)n1CC2
 : -10%, -1%
> CCOC(=O)Nc1sc(C)c(C)c1C(N)=O
 : i, 0%
> COCCN(C(=O)COC(=O)/C=C/c1nc2ccccc2s1)c1c(N)n(Cc2ccccc2)c(=O)[nH]c1=O
 : u, u
> Cc1cccc(-c2nc(C)c(CCNC(=O)C(=O)Nc3ccc(C)c(C)c3)s2)c1
 : -8%, -10%
> Cc1onc(-c2c(F)cccc2Cl)c1C(=O)NC(C)c1ccccc1 (stereo not drawn)
 : 3%, -9%
> O=C(Cc1ccccc1)c1ccc(Cl)cc1
 : -12%, -2%
> COc1cc2c(cc1OC)C(CC#N)=NC(C)(C)C2
 : x, -22%
> O=[N+]([O-])c1ccc(CN2[C@H](COCc3ccccc3)[C@@H](N3CCCC3)CS2(=O)=O)cc1
 : 20%, -1%
> CCc1nc2c(OCc3ccc(OC)cc3)cccn2c1N(C)C(=O)c1ccco1
 : i, -10%
> CCCOC1(C(F)(F)F)NC(=O)N(c2cccc(Cl)c2)C1=O (stereo not drawn)
 : -10%, -3%
> CCOc1ccc(N2C(=O)S/C(=C\c3cc(OC)c(OC)c(OC)c3)C2=O)cc1
 : i, 13%
> CCCN1C(C(=O)c2ccccc2)=C(OC(=O)c2ccc(C)cc2)c2ccccc2S1(=O)=O
 : -29%, -25%
> CCc1cc(-c2nnn(CCC3COCCO3)c2CC)ccc1-c1cn(Cc2ccc3ccccc3c2)nn1 (stereo not drawn)
 : u, u
> CCN(CCCNC(=O)c1ccc(Sc2ccc(F)cc2)c(NC(C)=O)c1)c1ccccc1
 : -13%, -14%

(further entries)
Under each structure: Vaccinia mCherry, Vaccinia Venus
> COc1ccc(NCc2nc3ccccc3n2CCOc2ccc(C)cc2)cc1
 : -26%&-21%, u
> CCOc1ccc(-c2c(C)nn3c(C)c(C(=O)NCc4ccc(C)o4)cnc23)cc1OCC
 : -6%, -17%
> CN(C)CCN(Cc1ccco1)C(=O)c1oc2ccccc2c1NC(=O)c1cccc(F)c1
 : 3%, 3%
> O=C(CC[C@H]1O[C@@H](n2ccc(=O)[nH]c2=O)[C@H](O)[C@@H]1O)N[C@@H](Cc1ccccc1)C(=O)NCc1ccccc1
 : 15%, -6%
> Cc1ccc(N2CCN(C(=O)N3CCCC3)CC2)cc1Cl
 : i, -6%
> Cc1cc(C)n(CC(=O)Nc2cccc(C(F)(F)F)c2)n1
 : i, -28%
> CCCc1ccc(C(=O)O/N=C(\N)c2ccccn2)cc1
 : -10%, -6%
> Clc1ccccc1NC1=NCCCS1
 : -22%, -3%
> O=C(O)c1ccc(Cl)c(S(=O)(=O)N2CCC(Cc3ccccc3)CC2)c1
 : -9%, 1%
> Cc1cccc(N(C)S(=O)(=O)c2c(C(=O)N3CCCCCC3)c(C)n(C)c2C)c1
 : -6%, -11%
> Cc1cc(C)c(NC(=O)C2C(=O)Nc3ccccc3C(=O)N2C(C)(C)C)c(C)c1 (stereo not drawn)
 : -20%, -3%
> O=C(C1=C(O)C(=O)N(CCOCCO)C1c1cccc([N+](=O)[O-])c1)c1cccs1 (stereo not drawn)
 : -15%, -13%
> CCN=C1S/C(=C\c2sccc2C)C(=O)N1CC
 : -10%, -3%
> CN1CCSc2ccc(C(=O)NCc3ccccc3)cc21
 : -13%, -19%&-12%
> O=C(NCc1ccccc1)c1cc(C2COCCN2C(=O)C2CC2)on1 (stereo not drawn)
 : -10%, -3%
> CC(C)CCOc1ccc(C2N=C(N)Nc3nc4ccccc4n32)cc1 (stereo not drawn)
 : -23%, -18%
> O=C(Cc1ccccc1)NCC(=O)N/N=C/c1cccs1
 : -15%, -18%
> COc1ccc(C(=O)c2ccc(OC)cc2OC)cc1
 : i, -14%
> N#CC(c1ccccc1)c1ccc(=O)[nH]n1 (stereo not drawn)
 : i, -8%

High-throughput results from PubChem BioAssay.
